Screens deposited in PubChem BioAssay by National Center for Advancing Translational Sciences (NCATS).
NS1 function inh: blocks influenza NS1 protein function. Potency, µM (titrated, usually from 46.1 µM), for inactives: at the highest dose activity, positive = more growth. hit rate 0.4% among 270,000. S. cerevisiae slowed by influenza A NS1, growth recovery by OD600; active means well fitted rising curve with a large enough effect; inconclusive means small, poorly fitted or top-dose-only effect; inactive means no such curve, though single readings can be large or run the other way; further: nearly all actives have a fitted effect of over 50% in size
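OD600 was taken as the measure of yeast growth restored by compound in an NS1-expressing S. cerevisiae strain. Cells had been washed out of glucose medium and diluted 1:100 into galactose -URA medium, pH 6.0.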
SARS PLpro yeast: blocks SARS-CoV papain-like protease in a yeast assay; S. cerevisiae expressing SARS-CoV PLpro, growth rescue; control for the full effect not named in the record; Potency, µM (highest dose often 32.9 µM), for the others: top-dose activity, positive = growth rescue; hit rate 0.19% among 330,000; AID 485353; active means well fitted rising curve with a large enough effect; inconclusive means small, poorly fitted or top-dose-only effect; inactive means no such curve, though single readings can be large or run the other way; further: 0% is about no effect; nearly all actives have a fitted effect of over 55% in size; growth read by luminescence after 48 h
LASV entry inh: blocks Lassa virus binding to or entry into cells; AID 540256; hit rate 1.2% among 300,000; Lassa virus pseudotype entry inhibition, cell reporter; control for the full effect not named in the record; Potency, µM (doses to about 37.9 µM), inactives show at the highest dose activity change, negative = inhibition, most hits filed as inhibitors; active means well fitted inhibition curve with a large enough effect; inconclusive means small, poorly fitted or top-dose-only effect, or effect the other way; inactive means flat fitted curve, though single readings scatter; tested in HEK293 cells; further: on the % scale 0 is the no-effect control and ±100 the full control effect; nearly all actives have a fitted effect of over 50% in size; luciferase read-out
Marburg entry inh: Marburg virus entry inhibition. AID 540276. Potency, µM (doses to about 37.8 µM), inactives show at the highest dose activity change, negative = inhibition, most hits filed as inhibitors. hit rate 1.8% among 300,000. Marburg virus pseudotyped entry inhibition, cell reporter; control for the full effect not named in the record; about a third of the inactives were read at about 46 µM; active = well fitted inhibition curve with a large enough effect; inconclusive = small, poorly fitted or top-dose-only effect, or effect the other way; inactive = flat fitted curve, though single readings scatter; tested in HEK293 cells; about a fifth of its hits are not listed in these tables; further: on the % scale 0 is the no-effect control and ±100 the full control effect; luciferase read-out
StopGo reporter: lowers the luciferase signal of an FMDV 2A StopGo reporter | human cells with a luciferase reporter of 2A StopGo recoding; control for the full effect not named in the record | Potency, µM (titrated, usually from 57.9 µM), without a hit: at the top dose signal change, negative = less light | hit rate 1.2% among 410,000 | AID 1159524; active = well fitted falling curve with a large enough effect; inconclusive = small, poorly fitted or top-dose-only effect; inactive = no such curve, though single readings can be large or run the other way; tested in HEK293T cells; further: on the % scale 0 is the no-effect control and ±100 the full control effect; nearly all actives have a fitted effect of over 45% in size; luciferase light after 4 h
Cruzain Triton: cruzain (T. cruzi) inhibition with detergent | P25779 | Potency, µM, without a hit: max response, negative = inhibition, hits mostly inhibitors | AID 1478 | hit rate 0.43% among 200,000 | purified cruzain, Z-FR-AMC fluorescence, 0.01% Triton;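 further: plate controls were neutral wells for no effect and buffer without enzyme for full effect; nearly all actives have a fitted effect of over 40% in size; top concentration of the series not given in the record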
Target sequence (P25779 123-467 limits assumed): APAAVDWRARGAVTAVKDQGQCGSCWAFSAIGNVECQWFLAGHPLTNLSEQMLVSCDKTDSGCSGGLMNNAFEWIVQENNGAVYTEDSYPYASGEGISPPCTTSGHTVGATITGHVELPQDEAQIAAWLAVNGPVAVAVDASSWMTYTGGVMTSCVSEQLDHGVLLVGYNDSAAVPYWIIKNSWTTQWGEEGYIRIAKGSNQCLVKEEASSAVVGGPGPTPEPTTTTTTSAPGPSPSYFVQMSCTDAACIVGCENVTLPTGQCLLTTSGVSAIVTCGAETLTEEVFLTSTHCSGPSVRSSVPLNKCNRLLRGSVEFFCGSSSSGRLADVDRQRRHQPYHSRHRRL
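Steps: dispense cruzain (1.5 nM final) in acetate buffer pH 5.5 with DTT and 0.01% Triton X-100; pin-transfer compounds; incubate 15 min RT; add Z-FR-AMC (2 uM final); read fluorescence every 30 s, using the 60 s intensity change.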
RE007 growth inh: less growth of the S. pombe RE007 Vpr strain; Potency, µM (highest dose often 92.2 µM), without a hit: at the highest dose activity change, negative = less growth; S. pombe RE007 Vpr strain, BacTiter-Glo ATP luminescence, 24 h; control for the full effect not named in the record; hit rate 0.21% among 360,000; active = well fitted falling curve with a large enough effect; inconclusive = small, poorly fitted or top-dose-only effect; inactive = no such curve, though single readings can be large or run the other way;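 further: on the % scale 0 is the no-effect control and ±100 the full control effect; nearly all actives have a fitted effect of over 50% in size; the assay follows cell death caused by Vpr and the record does not say whether a fall means rescue or toxicity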
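Fission yeast strain RE007, carrying one chromosomally integrated HIV-1 vpr copy, was seeded at OD 0.01 in PMG+AL medium with 23 nL pinned compound. After 24 h at 30 °C and 99% humidity, viability was read by BacTiter-Glo luminescence.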
Cruzain inh noDet: inhibitors of Trypanosoma cruzi cruzain without detergent; purified cruzain, Z-FR-AMC fluorescence, no detergent; AID 1476; Potency, µM, for inactives: max response, negative = inhibition, hits mostly inhibitors; hit rate 2.3% among 200,000;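 further: plate controls were enzyme without inhibitor for no effect and buffer without enzyme for full effect; nearly all actives have a fitted effect of over 40% in size; top concentration of the series not given in the record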
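Detergent-free condition (0.00005% Triton X-100) in acetate buffer pH 5.5 with DTT. 1.5 nM enzyme and compound were pre-mixed 15 min, then 2 uM Z-FR-AMC substrate added; reaction progress from fluorescence change between first and third reads (60 s).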
* = called active by the depositor; ? = inconclusive; . = no result given; & = joins results of further samples; [ ] = another dose, or the depositor's remark. Unless noted, the call rests on the fitted dose curve; in most records, active means well fitted curve in the direction sought with a large enough effect; inconclusive means small, poorly fitted or top-dose-only effect, or another doubt; inactive means no such curve, though single readings can be large; an effect the other way counts as inactive or inconclusive. Potency means the concentration at half of the fitted maximal effect.

SMILES | NS1 function inh | SARS PLpro yeast | LASV entry inh | Marburg entry inh | StopGo reporter | Cruzain Triton | RE007 growth inh | Cruzain inh noDet
Cc1ccc(C(=O)CSc2ccc(-c3ccccc3)nn2)cc1 | -1% | -12% | -1% | 14% | -10% | -2.8% | -17% | 4%
CCN(CC)C(=O)COc1ccc(-c2nnc(Nc3ccc(OC)c(C(=O)NC)c3)c3ccccc23)cc1 | -9% | 0% | ? | -10%&-18%[46.1 µM] | -22%&-23% | -5.2% | -20% | -7%
O=C(c1cc(-c2ccncc2)nc2ccccc12)N1CCN(Cc2ccccc2)CC1 | . | -6% | ? | 7.9µM* | -28% | . | -8% | .
COc1ccc(/C=N/n2cnc3c([nH]c4ccccc43)c2=O)cc1CO | 1% | 0% | . | . | 0% | . | -10% | .
CCOc1cccc2sc(N(CCN(C)C)C(=O)c3ccc4ccccc4c3)nc12 | -21% | -1% | -18%[46.1 µM] | ? | -20% | . | -12% | .
Cc1cc(C)cc(Oc2nc(-c3ccccc3)cc(C)c2S(C)(=O)=O)c1 | ? | 8% | ? | -22% | -27% | -24% | -15% | -16%
CN1CCC(=O)N([C@H](CO)c2ccccc2)CC1 | -13% | 1% | . | . | 34%[activator] | . | 16% | .
O=C(Nc1ccc(F)cc1)c1ccc(S(=O)(=O)N2CCOCC2)o1 | 1% | 1% | -4% | 4%[46.1 µM] | -12% | . | -11% | .
CCn1c(SCC(=O)NC2CCCC2)nc2c1c(=O)n(C)c(=O)n2C | 1% | 1% | 0% | 15%[46.1 µM] | 0% | . | -14% | .
CCCCC(=O)Nc1cccc(C(=O)Nc2ccccc2C(=O)O)c1 | 1% | 0% | -4% | -4%[46.1 µM] | 24% | . | -4% | .
O=C(CSc1nnc(-c2ccccc2Cl)o1)N1CCOCC1 | 8% | -1% | 19%[46.1 µM] | 22%[46.1 µM] | 45%[activator] | . | -16% | .
O=C(/C=C/c1ccccc1)NNc1ccc(Cl)cc1 | . | -11% | -15%[46.1 µM] | -23%[46.1 µM] | 3% | . | 9% | .
COc1ccc(CN2CCNC(=O)C2CC(=O)NC2CCCC2)c(OC)c1 (stereo not given) | 7% | -2% | . | . | ? | . | -3% | .
COc1ccc(OC(=O)c2ccc(Cl)cc2)c(C(C)=O)c1 | . | -3% | 8% | 2%[46.1 µM] | -11% | . | -2% | .
COC(CN(C)C(=O)C1CCC(CNS(=O)(=O)c2ccc(C)cc2)CC1)OC (stereo not given) | -3% | 0% | . | . | -14% | . | 2% | .
COc1ccc(Br)cc1CN(C)C(=O)CNC(=O)c1ccc2ccccc2c1 | -21% | -3% | . | ? | ? | . | 5% | .
CN(Cc1ccccc1)CC(O)COc1ccc(CNCc2cccnc2)cc1 (stereo not given) | 1% | 2% | . | . | ? | . | 16% | .
CN1CCN(c2ncnc3ccc(Br)cc23)CC1 | -3% | -3% | 13% | -1% | -18% | -0.9% | -1% | -5%
COc1ccc(CNC(=O)/C=C/c2ccco2)cc1OC | . | 1% | 1% | -3%[46.1 µM] | -8% | . | 2% | .
CCn1ccc2cc(S(=O)(=O)N3CCC(C(=O)NCCc4ccc(C)cc4)CC3)ccc21 | . | . | -18%[46.1 µM] | . | -4% | -1.7% | . | -22%
COc1ccc(C)cc1NCc1ccc(OC)c(C)c1OC | 1% | -1% | . | . | -23% | . | -1% | .
CC1(C)Cc2c(sc3c2C(=O)N(c2ccccc2)C2=NCCN23)CS1 | -1% | -3% | 6% | 14% | -23% | -3.1% | -8% | 10%
CCCSc1nc(O)c(CC)c(=O)n1C(C)CC (stereo not given) | -48% | -17% | 11% | 5% | 0% | 1.0% | 4% | -6%
Cn1nc(C(=O)NC2=NCCS2)ccc1=O | 3% | -3% | 13% | -12% | 4% | 2.4% | 14% | -2%
S=c1[nH]ncn1/N=C/c1cccs1 | -1% | -6% | . | . | 2% | . | -5% | .
CCCS(=O)(=O)c1c(S(=O)(=O)CCC)c2c(N)cccn2c1C(=O)c1ccc(OC)cc1 | 12% | 0% | ? | ? | 12% | . | 11% | .
CCOc1ccc(CCNC(=O)c2cn(C)c3ccc(S(=O)(=O)N4CCCCCC4)cc3c2=O)cc1OCC | . | . | 18%[46.1 µM] | ? | 8% | -3.6% | . | 0%
COc1ccccc1-c1nn2c(=O)cc(C)nc2s1 | -114% | ? | -3% | -3%[46.1 µM] | 42%[activator] | 5.8% | 11% | 6%
CCOC(=O)CNC(=O)Nc1nnc(-c2ccc(OCC)cc2)o1 | -12% | 3% | -16% | 16% | 19% | 2.7% | 7% | -3%
Cc1ccc(CN2CCSc3ccc(C(=O)NCCc4ccccc4)cc32)cc1 | . | . | 0%[46.1 µM] | 0%[46.1 µM] | 69%[activator] | -11% | . | -28%
COC(=O)C(C(=O)OC)c1ccccc1[N+](=O)[O-] | 1% | -1% | -8% | 3%[46.1 µM] | -10% | -0.8%&2.1% | 27% | -9%&0%
O=C(C1CCCN(c2ncnc3c2nc2n3CCCCC2)C1)N1CCN(c2ccc(F)cc2)CC1 (stereo not given) | -27% | -2% | ? | ? | ? | . | -2% | .
COc1cccc(C(=O)NC(=S)Nc2ccc(Cl)c(C(=O)O)c2)c1 | 8% | . | 13% | 22% | 11% | 3.0% | -12% | -14%
CCC(=O)Nc1ccc(-c2cc(-c3ccccc3)nc(-c3ccc(NC(=O)CC)cc3)n2)cc1 | 9% | -2% | 7% | -4% | 0% | 4.5% | -9% | 5%
CC1(C)CC(=O)c2cnc(NC(=O)c3ccco3)nc2C1 | 4% | -20% | 20% | 1% | 33%[activator] | 3.3% | 6% | 3%
Cc1ccc(NC(=O)CN(C)CC(=O)Nc2ccccc2C(=O)Nc2ccccc2)cc1 | . | 4% | -15% | -1%[46.1 µM] | 8% | . | -9% | .
CCC(CNc1cc(OC)cc2cccnc12)NC1CCCCC1 (stereo not given) | 4% | 2% | . | . | -19% | . | 1% | .
C/C(=N\Nc1nc(C)cc(-c2ccccc2)n1)c1ccc(C)o1 | 14% | 14% | ? | -17%[46.1 µM] | ? | -1.8% | -27% | -15%
CC(C)CCNC(=O)c1ccc2c(c1)NC(=O)C(CS(=O)(=O)Cc1cccc(Br)c1)N2 (stereo not given) | . | . | 10%[46.1 µM] | . | 0% | -4.7% | . | -11%
CC(Oc1ccc(-c2ccccc2)cc1)C(=O)N/N=C/c1cccnc1 (stereo not given) | -8% | -6% | -2% | -23%[46.1 µM] | -7% | . | 6% | .
CC1(C)Cc2c(sc3ncn4nnnc4c23)CO1 | -4% | -3% | . | -2% | . | -1.3% | . | -8%
CCC1(C)Cc2ccccc2/C(=C/C(=O)N2CCCCC2)N1 (stereo not given) | 0% | -7% | -6% | -29% | -28% | 0.9% | -10% | -1%
O=C(COC(=O)/C=C/c1cccc(Br)c1)NCCc1ccccc1 | . | 1% | 0% | 16% | 1% | . | 2% | .
O=C1c2cccc3cccc(c23)C(=O)N1CCCN1CCN(c2ccc(F)cc2)CC1 | 2% | 11% | . | . | ? | . | -9% | .
CC(C)[C@H](NC(=O)OCc1ccccc1)C(=O)OCC(=O)N1C(C)CCCC1C (stereo not given in full) | . | . | -10%[46.1 µM] | 6%[46.1 µM] | 30% | . | -4% | .

Molecules from the list above containing a Cl atom (4):
SMILES | NS1 function inh | SARS PLpro yeast | LASV entry inh | Marburg entry inh | StopGo reporter | Cruzain Triton | RE007 growth inh | Cruzain inh noDet
O=C(CSc1nnc(-c2ccccc2Cl)o1)N1CCOCC1 | 8% | -1% | 19%[46.1 µM] | 22%[46.1 µM] | 45%[activator] | . | -16% | .
O=C(/C=C/c1ccccc1)NNc1ccc(Cl)cc1 | . | -11% | -15%[46.1 µM] | -23%[46.1 µM] | 3% | . | 9% | .
COc1ccc(OC(=O)c2ccc(Cl)cc2)c(C(C)=O)c1 | . | -3% | 8% | 2%[46.1 µM] | -11% | . | -2% | .
COc1cccc(C(=O)NC(=S)Nc2ccc(Cl)c(C(=O)O)c2)c1 | 8% | . | 13% | 22% | 11% | 3.0% | -12% | -14%

Exported in CSV form: 3 of the compounds above
compound,NS1 function inh,SARS PLpro yeast,LASV entry inh,Marburg entry inh,StopGo reporter,Cruzain Triton,RE007 growth inh,Cruzain inh noDet
CCCSc1nc(O)c(CC)c(=O)n1C(C)CC (stereo not given),-48%,-17%,11%,5%,0%,1.0%,4%,-6%
Cn1nc(C(=O)NC2=NCCS2)ccc1=O,3%,-3%,13%,-12%,4%,2.4%,14%,-2%
S=c1[nH]ncn1/N=C/c1cccs1,-1%,-6%,.,.,2%,.,-5%,.

The listing continues:
SMILES | NS1 function inh | SARS PLpro yeast | LASV entry inh | Marburg entry inh | StopGo reporter | Cruzain Triton | RE007 growth inh | Cruzain inh noDet
CCCCC(=O)Nc1cccc(-c2nc3ncccc3o2)c1 | -23% | 1% | -5% | 7% | 26% | -3.6% | 14% | 5%
COc1ccc(-c2cc(C(=O)N(C)Cc3ccccc3F)c3ccccc3n2)cc1OC | -3% | . | ? | ? | 7% | . | -1% | .
Clc1ccc(Br)cc1-c1nc(-c2ccncc2)no1 | -8% | -7% | -14% | -15% | 34%[activator] | ? | -6% | ?
COc1ccccc1Nc1ncccc1C(=O)NCc1ccccc1 | 0% | 21% | -2% | 2% | -14% | -11% | -15% | 7%
O=C(OCCN=C1NS(=O)(=O)c2ccccc21)c1ccccc1F | 6% | 6% | 1%[46.1 µM] | -4%[46.1 µM] | 48%[activator] | . | 6% | .
O=[N+]([O-])c1ccc(S(=O)(=O)NCC(c2cccnc2)N2CCc3ccccc32)cc1 (stereo not given) | . | -4% | 7% | 6% | 15% | . | -12% | .
